Screening results (PubChem BioAssay)
PME-1 inh = PME-1 inhibitors via competitive probe labeling, primary screen, biochemical, fluorescence polarization, FP-Rh probe, HTS. 320,000 tested, 0.53% active. inhibition, % at 5.9 µM. recombinant PME-1;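 active = inhibition above the campaign mean of all compounds plus 3 SD, cut at about 26% in these data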;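 also: competitive labeling of PME-1 active site by serine hydrolase directed probe; 0% = PME-1 with DMSO and 100% = wells lacking PME-1 enzyme; inhibitors block probe labeling so polarization falls and inhibition rises; many of its hits are not listed in these tables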
PAD4 inh = human PAD4 inhibitors, primary screen, biochemical, fluorescence polarization, 1536-well format; AID 485272, 2010; inhibition, % at 6.36 µM; 330,000 tested, 0.41% active; recombinant PAD4, RCA probe fluorescence polarization;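 active = percent inhibition above a cutoff equal to the mean of all tested compounds plus 3 SD, cut at about 15% in these data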;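 also: 0% = PAD4 with RCA probe and DMSO and 100% = probe without PAD4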
PAFAH1B2 inh = PAFAH1B2 enzyme inhibitors, primary screen, biochemical, fluorescence polarization, human | Platelet-activating factor acetylhydrolase IB subunit alpha2 (Homo sapiens), P68402 | recombinant PAFAH1B2, FP-rhodamine activity probe | inhibition, % at 3.39 µM | 340,000 tested, 1.2% active | AID 492953, 2010;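 active = inhibition above the mean of all tested compounds plus 3 SD, cut at about 24% in these data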;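 also: 0% = enzyme with DMSO and 100% = wells lacking PAFAH1B2; many of its hits are not listed in these tables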
Target sequence (P68402 whole entry, looked up): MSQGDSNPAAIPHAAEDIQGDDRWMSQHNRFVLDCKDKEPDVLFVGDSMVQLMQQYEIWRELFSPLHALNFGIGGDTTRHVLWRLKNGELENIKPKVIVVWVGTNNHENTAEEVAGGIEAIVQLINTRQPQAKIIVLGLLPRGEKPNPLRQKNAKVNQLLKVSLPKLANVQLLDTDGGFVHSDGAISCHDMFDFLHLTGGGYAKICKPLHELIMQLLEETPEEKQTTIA
PAFAH1B3 FP inh = PAFAH1B3 enzyme inhibitors, primary screen, biochemical, fluorescence polarization, human; Platelet-activating factor acetylhydrolase IB subunit alpha1 (Homo sapiens), Q15102; recombinant PAFAH1B3, FP-rhodamine probe; inhibition, % at 3.39 µM; 340,000 tested, 0.28% active;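 active = inhibition above the screen-wide average of all tested compounds plus 3 SD, cut at about 25% in these data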;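 also: 0% = enzyme with DMSO only and 100% = wells lacking PAFAH1B3 protein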
Target sequence (Q15102 whole entry, looked up): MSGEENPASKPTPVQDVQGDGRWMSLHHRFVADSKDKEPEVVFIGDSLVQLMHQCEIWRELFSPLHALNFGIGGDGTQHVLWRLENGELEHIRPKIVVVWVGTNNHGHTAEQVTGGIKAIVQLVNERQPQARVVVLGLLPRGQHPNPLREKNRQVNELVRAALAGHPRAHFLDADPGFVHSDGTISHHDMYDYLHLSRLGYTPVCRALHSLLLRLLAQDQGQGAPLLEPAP
LYPLA2 counter = LYPLA2 inhibitors, primary screen, counter-screen for PME1 inhibitor project, biochemical, fluorescence polarization, FP-Rh probe ABPP. Acyl-protein thioesterase 2 (Homo sapiens), O95372. recombinant LYPLA2. inhibition, % at 5.9 µM. 320,000 tested, 0.38% active. AID 2177, 2009;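 active = inhibition above the screen-wide mean plus 3 SD, limit set per campaign, cut at about 26% in these data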;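 also: 0% = LYPLA2 with DMSO and 100% = wells lacking LYPLA2 enzyme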
Target sequence (O95372 whole entry, looked up): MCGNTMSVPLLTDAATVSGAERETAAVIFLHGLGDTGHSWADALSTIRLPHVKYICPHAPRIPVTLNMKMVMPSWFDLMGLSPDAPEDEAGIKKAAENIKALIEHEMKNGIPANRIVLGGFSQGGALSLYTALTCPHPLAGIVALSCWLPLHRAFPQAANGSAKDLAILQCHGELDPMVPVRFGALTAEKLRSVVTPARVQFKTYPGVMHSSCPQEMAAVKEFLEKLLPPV
PAFAH2 FP inh = PAFAH2 enzyme inhibitors, primary screen, biochemical, fluorescence polarization, human; AID 492956, 2010; recombinant PAFAH2, FP-rhodamine activity probe; 340,000 tested, 0.99% active; Platelet-activating factor acetylhydrolase 2, cytoplasmic (Homo sapiens), Q99487; inhibition, % at 3.39 µM;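 active = inhibition above the mean over all tested compounds plus 3 SD, cut at about 30% in these data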;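 also: inhibitors block probe labeling of enzyme so polarization drops; 0% = enzyme with DMSO and 100% = wells lacking PAFAH2 protein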
LYPLA1 counter = LYPLA1 inhibitors, primary screen, counter-screen for PME1 inhibitor project, biochemical, fluorescence polarization, FP-Rh probe ABPP. Acyl-protein thioesterase 1 (Homo sapiens), O75608. recombinant LYPLA1. inhibition, % at 5.9 µM. 320,000 tested, 0.16% active;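 active = inhibition above the mean of all tested compounds plus 3 SD, set per campaign, cut at about 14% in these data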;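 also: inhibitors block serine hydrolase probe labeling of LYPLA1 so polarization falls; 0% = enzyme with DMSO and 100% = wells lacking LYPLA1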
Target sequence (O75608 whole entry, looked up): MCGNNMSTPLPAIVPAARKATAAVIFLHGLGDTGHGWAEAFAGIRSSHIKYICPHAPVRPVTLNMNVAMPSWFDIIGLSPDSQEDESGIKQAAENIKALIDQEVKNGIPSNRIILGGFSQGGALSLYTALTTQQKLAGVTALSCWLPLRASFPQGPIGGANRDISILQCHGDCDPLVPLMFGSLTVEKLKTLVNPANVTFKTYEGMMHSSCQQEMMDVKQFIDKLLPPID
GSTO1 counter = inhibitors of recombinant GSTO1, primary screen, counter-screen for RBBP9 inhibitor project, biochemical, fluorescence polarization; 300,000 tested, 1.1% active; Glutathione S-transferase omega-1 (Homo sapiens), P78417; inhibition, % at 5.96 µM; activity-based probe fluorescence polarization; AID 1974, 2009;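 active = inhibition above the campaign mean inhibition plus 3 SD, cut at about 35% in these data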;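 also: 0% = GSTO1-1 with DMSO and 100% = wells lacking GSTO1-1 enzyme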
* = called active by the depositor; x = not tested or not shown.

item	SMILES	PME-1 inh	PAD4 inh	PAFAH1B2 inh	PAFAH1B3 FP inh	LYPLA2 counter	PAFAH2 FP inh	LYPLA1 counter	GSTO1 counter
1	COc1ccccc1CNC(=O)COC(=O)CC1CC2CCC1C2 (stereo not given)	3	1	5	1	1	34*	-1	x
2	CCCc1cc(=O)oc2c3c(cc(OCC(=O)NCc4ccncc4)c12)OC(C)(C)CC3	4	-1	1	10	5	56*	2	-3
3	O=C(CN(Cc1ccccc1)C(=O)c1ccco1)NCc1ccc(F)cc1	1	-1	-2	5	-8	15	0	7
4	CCc1cccc(CC)c1NC(=O)COC(=O)Cc1ccsc1	0	-3	0	4	-2	11	-3	0
5	CCc1ccc(NS(=O)(=O)c2ccc3c(c2)CCN3C(=O)CCC(=O)O)cc1	-1	-3	4	7	2	2	-1	32
6	N/C(Cc1ccc([N+](=O)[O-])cc1)=N\OC(=O)c1cccc(Br)c1	5	-4	7	2	3	29	-3	3
7	COc1ccc(N(CC(=O)Nc2c(C)cccc2C)S(=O)(=O)c2ccccc2[N+](=O)[O-])c(OC)c1	-2	2	-1	7	1	-1	0	-1
8	CC(C)(C)OC(=O)NCCCCC1=CC2=CC(=O)C(C)(O)C(=O)C2=CO1 (stereo not given)	1	-5	6	4	-4	13	-4	4
9	CCOc1ccc(NS(=O)(=O)c2ccc(C(=O)N(C)CCc3ccc(OC)c(OC)c3)cc2)cc1	-1	-1	-2	4	-3	-6	0	3
10	CCOc1ccc(NS(=O)(=O)c2ccc(NC(=O)C3CCCO3)cc2)cc1 (stereo not given)	-6	-6	1	2	-5	4	-4	18
11	O=C1C2CCCN2C(=O)N1CCCCN1CCN(c2cccc(C(F)(F)F)c2)CC1 (stereo not given)	1	0	3	3	64*	3	3	-1
12	Cc1nn(-c2ccccc2)c(C)c1NC(=O)COc1ccc(F)cc1Cl	3	-1	-3	9	-4	5	-2	2
13	O=S(=O)(Nc1ccc(OC(F)F)cc1)c1ccc(-c2ccon2)s1	10	2	5	-7	4	2	0	14
14	Cc1ccc(CCNC(=O)c2ccc(CS(=O)(=O)Cc3ccc(F)cc3)o2)cc1	-2	-2	28*	5	-4	6	-4	1
15	Cc1ccc(C)c(NS(=O)(=O)c2cc(C(=O)NCCSC3CCCCC3)ccc2C)c1	-45	-5	12	-6	-60	-12	-30	-10
16	CCCCCCCCCCS(=O)(=O)N/N=C/c1ccccc1OC	-9	-2	-1	2	-21	-7	-11	-3
17	Cc1cccc(NS(=O)(=O)c2cc3c4c(c2)CCN4C(=O)CC3)c1C	8	4	1	3	-2	-1	0	-1
18	Cc1c(C)c2c(OCC(=O)NCC(=O)NCC(=O)O)cc3c(c2oc1=O)CCC(C)(C)O3	-6	-3	6	-4	4	80*	-1	-3
19	N#Cc1c(-c2ccccc2)cc(-c2ccccc2)nc1SCC(=O)NCC(=O)O	0	-2	9	6	7	9	0	-14
20	O=C(c1cc2ccccc2o1)c1nc2c(n1O)CCCCC2	-4	-7	2	10	-4	2	-3	5
21	CCc1cc(=O)oc2c3c(cc(OCC(=O)NCc4ccco4)c12)OC(C)(C)CC3	1	4	6	2	3	53*	1	-5
22	CCOC(=O)N/N=C\C=C\c1ccc2c(c1)OCO2	0	3	3	5	9	-6	2	7
23	CC(C)c1ccccc1NC(=O)COC(=O)Cc1ccsc1	8	-3	11	4	-8	23	1	7
24	O=C(NCCc1nnc2ccc(NCC3CCCO3)nn12)c1ccccc1 (stereo not given)	-4	3	-2	2	2	0	2	6
25	CC(NC(=O)c1ccc(S(=O)(=O)Nc2ccccc2)cc1)c1ccc(S(N)(=O)=O)cc1 (stereo not given)	4	-4	3	3	-4	-1	-2	x
26	O=C(COC(=O)c1ccc(O)cc1)Nc1cc(C(F)(F)F)ccc1N1CCOCC1	-2	-2	4	-1	7	79*	-1	x
27	Cc1ccnc(NC(=O)c2cccc(S(=O)(=O)Nc3ccc(C)cc3C)c2)c1	x	1	-3	-4	x	1	x	x
28	COC(C(=O)Nc1ccc(S(=O)(=O)Nc2ccc(C)c(C)c2)cc1)c1ccccc1 (stereo not given)	-8	-6	-1	1	-5	-3	-13	6
29	NC(=O)c1sc2nc(-c3ccco3)ccc2c1N	9	-8	5	4	-5	27	-3	2
30	O=C1c2ccccc2S(=O)(=O)c2cc(C(=O)N3CCC(C(=O)N4CCCCC4)CC3)ccc21	-1	-8	x	x	19	x	5	-7
31	NC(=O)C1CCN(C(=O)c2ccc(Oc3cc(Cl)cc(Cl)c3)o2)CC1	6	-2	0	9	-4	25	-1	-5
32	Cc1ccc(NS(=O)(=O)c2cccc(C(=O)NC3CC3)c2)c(C)c1	x	4	0	8	x	5	x	x
33	O=C(/C=C/c1cccc([N+](=O)[O-])c1)c1cccs1	2	7	-2	7	4	-5	0	7
34	COCc1c(C(=O)OCC(=O)Nc2ccc(OC(F)F)cc2)oc2ccccc12	-4	0	3	4	-4	30*	-3	x
35	CCOC(=O)c1oc2ccc(S(=O)(=O)Nc3ccc4c(c3)n(C)c(=O)n4C)cc2c1C	2	-12	-1	-5	-7	9	-5	-35
36	O=C(C1COc2ccccc2O1)N1CCCCC1 (stereo not given)	-6	1	1	2	-3	2	1	x

Complete entries, looked up by structure. Values in the order: PME-1 inh | PAD4 inh | PAFAH1B2 inh | PAFAH1B3 FP inh | LYPLA2 counter | PAFAH2 FP inh | LYPLA1 counter | GSTO1 counter
Profile of N#Cc1c(-c2ccccc2)cc(-c2ccccc2)nc1SCC(=O)NCC(=O)O : 0 | -2 | 9 | 6 | 7 | 9 | 0 | -14
Profile of CCOC(=O)c1oc2ccc(S(=O)(=O)Nc3ccc4c(c3)n(C)c(=O)n4C)cc2c1C : 2 | -12 | -1 | -5 | -7 | 9 | -5 | -35

New compounds follow.
item	SMILES	PME-1 inh	PAD4 inh	PAFAH1B2 inh	PAFAH1B3 FP inh	LYPLA2 counter	PAFAH2 FP inh	LYPLA1 counter	GSTO1 counter
37	Cc1cccc(CS(=O)(=O)Cc2ccc(C(=O)NCc3ccccc3)o2)c1	0	4	3	6	4	5	-1	-1
38	COc1ccc(NS(=O)(=O)c2cccc(C(=O)NCC(c3ccc(F)cc3)N3CCOCC3)c2)cc1 (stereo not given)	2	0	5	4	-3	-4	-2	32
39	Cc1ccc(C)c(N2CCN(C(=O)c3ccc(CS(=O)Cc4ccc(Cl)cc4)o3)CC2)c1 (stereo not given)	-4	-5	6	-4	-8	5	-2	3
40	COc1ccc(S(=O)(=O)Nc2ccc(Cc3ccncc3)cc2)cc1C	19	0	0	-1	4	2	36*	13
41	C/C(=C\C(=O)c1ccccc1)Nc1cccc(O)c1	0	-15	-1	-5	1	4	2	3
42	CCN1CCN(C(=O)/C=C/c2ccc3c(c2)OCO3)CC1	-5	5	1	12	-3	-1	-3	-6
43	COc1nc(NCCc2ccc(OC)c(OC)c2)nc(OC)n1	-3	3	1	0	-2	5	-1	3
44	Cc1ccc(CS(=O)(=O)Cc2ccc(C(=O)NCc3cccs3)o2)cc1	4	2	7	9	0	7	1	6
45	Cc1ccc(N=C2NC(=O)/C(=C/c3cccnc3)S2)c(C)c1	-2	-3	1	1	6	15	1	0
46	CSc1nsc(/C=C/Nc2ccc(F)cc2F)c1C#N	2	-16	1	1	-6	7	-7	12
47	CCS(=O)(=O)N1CCN(C(=O)COc2ccc(-c3ccccc3)cc2)CC1	0	2	7	5	8	6	1	4
48	O=C(COC(=O)c1ccc(O)cc1)Nc1ccc(OC(F)F)cc1	-18	-4	0	4	-1	76*	0	12
49	O=C(Cc1ccccc1)Nc1ccc(Br)c(Cl)c1	-7	0	-4	-9	-1	-3	-5	-7
50	COc1cc(OC)cc(-c2c(-c3cccs3)c3cc(-c4ccc5[nH]ccc5c4)ccc3n2C)c1	-4	-1	4	17	-3	-6	-4	x

Laid out differently: 6 of the compounds above
50: COc1cc(OC)cc(-c2c(-c3cccs3)c3cc(-c4ccc5[nH]ccc5c4)ccc3n2C)c1
47: CCS(=O)(=O)N1CCN(C(=O)COc2ccc(-c3ccccc3)cc2)CC1
44: Cc1ccc(CS(=O)(=O)Cc2ccc(C(=O)NCc3cccs3)o2)cc1
40: COc1ccc(S(=O)(=O)Nc2ccc(Cc3ccncc3)cc2)cc1C
48: O=C(COC(=O)c1ccc(O)cc1)Nc1ccc(OC(F)F)cc1
45: Cc1ccc(N=C2NC(=O)/C(=C/c3cccnc3)S2)c(C)c1

Compound,50,47,44,40,48,45
PME-1 inh,-4,0,4,19,-18,-2
PAD4 inh,-1,2,2,0,-4,-3
PAFAH1B2 inh,4,7,7,0,0,1
PAFAH1B3 FP inh,17,5,9,-1,4,1
LYPLA2 counter,-3,8,0,4,-1,6
PAFAH2 FP inh,-6,6,7,2,76*,15
LYPLA1 counter,-4,1,1,36*,0,1
GSTO1 counter,x,4,6,13,12,0

Random excerpt: three records from the list.
item	SMILES	PME-1 inh	PAD4 inh	PAFAH1B2 inh	PAFAH1B3 FP inh	LYPLA2 counter	PAFAH2 FP inh	LYPLA1 counter	GSTO1 counter
42	CCN1CCN(C(=O)/C=C/c2ccc3c(c2)OCO3)CC1	-5	5	1	12	-3	-1	-3	-6
45	Cc1ccc(N=C2NC(=O)/C(=C/c3cccnc3)S2)c(C)c1	-2	-3	1	1	6	15	1	0
47	CCS(=O)(=O)N1CCN(C(=O)COc2ccc(-c3ccccc3)cc2)CC1	0	2	7	5	8	6	1	4

Only part of the results is shown; rates above refer to the full screens.
